Yeast UUG start: modulators of start codon recognition fidelity in yeast; S. cerevisiae UUG-firefly luciferase reporter, luminescence/redox ratio; activity score, % at 18.7 µM; 0.13% of 350,000 active; AID 602363;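 active means replicate mean at a twofold rise or more, about +100% in these data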;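 further: firefly luciferase made from a UUG start codon reports start codon fidelity; reporter light over untreated wells divided by growth signal over untreated wells; some hits fall short of that in this replicate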
Rce1 inh: blocks yeast Ras-converting enzyme. Q03530. yeast membranes, quenched prenylated peptide cleavage fluorescence. calls only. 0.27% of 290,000 active. AID 2563;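 active means fall in fluorescence gain of 50% or more versus controls, with final raw signal at or below 3038400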;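 further: plate controls were neutral control wells for no effect and wells lacking membranes for full effect; tested at 10 µM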
Target sequence (Q03530 whole entry, looked up): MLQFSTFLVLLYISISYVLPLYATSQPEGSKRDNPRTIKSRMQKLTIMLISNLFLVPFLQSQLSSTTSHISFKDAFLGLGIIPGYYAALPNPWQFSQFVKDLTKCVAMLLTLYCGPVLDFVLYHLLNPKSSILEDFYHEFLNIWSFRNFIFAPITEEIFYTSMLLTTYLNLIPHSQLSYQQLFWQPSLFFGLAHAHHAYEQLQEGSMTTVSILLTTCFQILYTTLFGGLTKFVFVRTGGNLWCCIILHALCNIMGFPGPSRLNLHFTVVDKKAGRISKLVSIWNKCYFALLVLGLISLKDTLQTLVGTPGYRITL
HIV Env fusion: HIV envelope-mediated fusion inhibition. AID 651610. inhibition, % at 12.3 µM. 1.1% of 360,000 active. HeLa-JRFL Env/CEM21 cell fusion, luciferase;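 active means mean replicate inhibition score of at least 50 and every replicate individually at or above 50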;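 further: 0% = plate neutral controls and 100% = maraviroc near 300 nM; one replicate is shown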
CSC inhib: cancer stem cell inhibition; cancer stem cell-like cells viability, luminescence; inhibition, % at 7.5 µM; 1.1% of 300,000 active; AID 2717;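 active means mean at 75% or more and at least half the replicates too; tested in HMLE shEcad cells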;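 further: 0% = median of negative and 100% = median of positive control wells; the first replicate is given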
PABP FP inh: PABP-poly(A) binding inhibition; P11940; PABP-poly(A) RNA binding, fluorescence polarization; inhibition, % at 35 µM; 1% of 290,000 active; AID 2014;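 active means 50% or more with normal probe brightness, or confirmed in later tests; about a fifth of its hits are not listed in these tables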;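 further: calls also rest on retests at 20 µM and on dose response follow-up; controls were probe without protein and protein plus probe with vehicle; some compounds called inactive have numbers as strong as hits; many hits fall short of the cut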
Target sequence (P11940 whole entry, looked up): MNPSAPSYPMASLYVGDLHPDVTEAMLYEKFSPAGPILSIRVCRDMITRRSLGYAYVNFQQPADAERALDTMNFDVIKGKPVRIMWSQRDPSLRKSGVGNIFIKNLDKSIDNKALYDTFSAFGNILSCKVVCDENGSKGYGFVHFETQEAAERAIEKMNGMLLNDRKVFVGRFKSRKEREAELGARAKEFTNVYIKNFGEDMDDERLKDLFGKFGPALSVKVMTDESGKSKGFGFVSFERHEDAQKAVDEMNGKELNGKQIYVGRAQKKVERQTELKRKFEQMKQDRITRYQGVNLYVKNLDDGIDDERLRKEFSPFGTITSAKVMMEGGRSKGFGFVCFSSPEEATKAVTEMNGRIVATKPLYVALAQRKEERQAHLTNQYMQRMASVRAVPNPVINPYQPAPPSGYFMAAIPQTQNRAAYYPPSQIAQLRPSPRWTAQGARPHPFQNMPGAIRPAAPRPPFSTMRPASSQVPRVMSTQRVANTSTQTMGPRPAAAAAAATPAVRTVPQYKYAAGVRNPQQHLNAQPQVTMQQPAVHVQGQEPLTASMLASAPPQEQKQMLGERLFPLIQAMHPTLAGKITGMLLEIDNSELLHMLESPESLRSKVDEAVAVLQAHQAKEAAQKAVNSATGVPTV
MT1-MMP act inh: inhibitors of human MT1-MMP activation | HT1080 RFP-PRO-GFP cells, GFP/RFP ratio fluorescence, overnight; percent of plate control window, DMSO zero | 0.061% of 360,000 active | P50281 | GFP/RFP ratio change, % at 20 µM | AID 651647;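 active means GFP/RFP ratio change of at least 30% with cell ATP level not reduced by more than half and red fluorescence within 50% of control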; further: strong numbers were not always called active
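Test system: HT1080 RFP-PRO-GFP cells; Benchmarks: DMSO and RFP-L50D-GFP cell wells; Timing: cells overnight before dosing, compound overnight, 37 °C, 5% CO2; Compound: one 20 µM compound dose with 1% DMSO; Read-out: GFP/RFP fluorescence ratio.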
eIF4H inh: inhibitors of RNA binding by human eIF4H | Q15056 | 0.94% of 290,000 active | inhibition, % at 35 µM | eIF4H fluorescence polarization binding assay;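 active means 50% or more with normal probe brightness, or confirmed in later tests; about a fifth of its hits are not listed in these tables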;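 further: calls also rest on retests at 20 µM and on dose response follow-up; 0% = protein and probe with vehicle and 100% = probe without protein; strong numbers were not always called active; many hits fall short of the cut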
eIF4H inh retest: second read-out of eIF4H inh, no call of its own (marks repeat the call); inhibition, %; compound at 20 µM; confirmation average;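 mean of two retest wells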
PABP FP inh retest: second read-out of PABP FP inh, no call of its own (marks repeat the call); inhibition, %; compound at 20 µM; confirmation repeats;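 mean of two retest wells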
MT1-MMP act inh RFP: further read-out of MT1-MMP act inh, marked with its call; RFP signal change, %; measured here: RFP expression control read;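 0 = vehicle wells; hits needed this value within 50% of zero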
An asterisk follows results filed as active; i = inactive; nt = no result given.

SMILES | Yeast UUG start | Rce1 inh | HIV Env fusion | CSC inhib | PABP FP inh | MT1-MMP act inh | MT1-MMP act inh RFP | eIF4H inh | others
CCn1cc(/C=N\NC(=O)c2ccc(Cl)cc2)cn1 | nt | i | -5 | -8 | 4 | 4 | 2 | 0
COc1ccc(C2c3c(ncn(CCN4CCOCC4)c3=N)Oc3ccc4ccccc4c32)cc1OC (stereo not drawn) | -3 | i | -211 | 3 | -14 | -7 | -6 | -10
NS(=O)(=O)c1ccc(CNc2ccc3ccccc3n2)cc1 | -11 | i | -27 | -6 | 7 | -1 | -2 | -15
CC1CCC(=C(C#N)c2nc(-c3cc4ccccc4oc3=O)cs2)CC1 (stereo not drawn) | -28 | i | nt | nt | -9 | 0 | -12 | -5
Cc1ccc(CNc2oc(-c3ccco3)nc2C#N)cc1 | -3 | i | nt | -7 | 1 | 7 | 0 | -3
O=C(Nc1ccc(Cl)c(Cl)c1)c1ccc2c(c1)OCO2 | -23 | i | -276 | 25 | -9 | 5 | -2 | -7
Cc1ccc(NC(=O)Nc2ccccc2)cc1[N+](=O)[O-] | -19 | i | -115 | 18 | -13 | 4 | 4 | -3
COC(C/C=C\[C@@H](O)COCc1ccccc1)OC | -4 | i | -69 | nt | -4 | 5 | 4 | -5
CCS(=O)(=O)N1CCCC(C(=O)NCc2cccc(OC)c2)C1 (stereo not drawn) | -3 | i | nt | -6 | 4 | 0 | 0 | -7
Cc1ccc2nc(NC(=O)Cn3nc(C)c([N+](=O)[O-])c3C)sc2c1 | nt | i | nt | -1 | -9 | 5 | 4 | -2
Cc1ccc(S(=O)(=O)N2CCOCC2)cc1NC(=O)Nc1ccc([N+](=O)[O-])cc1 | -14 | nt | -7 | 23 | nt | 7 | -8 | nt
CCOC(=O)c1c(NC(=O)CS(=O)(=O)c2cn(CC)c3ccccc23)sc2c1CCCC2 | -19 | i | 3 | 0 | 6 | 1 | -3 | 1
COc1cccc(C(=O)Nc2nnc(SCC(=O)Nc3ccc(NC(C)=O)cc3)s2)c1 | -5 | i | -74 | -9 | 14 | -1 | -1 | 2
O=C(NC(=S)NCc1ccco1)c1ccc(Br)cc1 | -28 | i | 3 | -3 | 3 | 2 | 3 | -6
CN1C=CC2=C(C#N)C(N)C(C#N)(C#N)C(c3ccccc3)C2C1 (stereo not drawn) | -8 | i | -27 | -14 | 118 | -109 | 0 | 122 | eIF4H inh retest=3;PABP FP inh retest=0
O=C(COC(=O)c1cccc(Cl)c1)NC(=O)NCc1ccccc1 | -11 | nt | 6 | -7 | nt | 3 | 2 | nt
CCOc1ccc(NC(=O)c2ccc(NC(=O)CN3C(=O)C(=O)N(CC(C)C)C3=O)cc2)cc1 | 2 | i | -5 | -3 | nt | -1 | 5 | nt
Cn1ncc([N+](=O)[O-])c1C(=O)Nc1ccccc1 | -18 | i | 2 | 4 | -12 | 5 | 4 | -9
CC1(C)CC(=O)C=C(c2cccc(CO)c2)C1 | -9 | nt | -1 | -19 | nt | 9 | 5 | nt
CCOc1ccc(NC(=O)CN(C)S(=O)(=O)c2cnc[nH]2)cc1 | nt | i | -4 | -4 | 5 | -4 | 1 | 13
COC(=O)C1=C(O)CSC1=Nc1ccccc1 | -3 | i | nt | -4 | 2 | -2 | -4 | -2
CC1CCCC(C)N1C(=O)c1cc2ncc(CCCl)cn2n1 (stereo not drawn) | nt | i | -6 | -7 | 1 | 0 | 1 | 5
CCN1C(=O)[C@H]2[C@H]3[C@H](O)[C@H](O)C/C(=N\OC[C@@H](C)[C@H](OCc4ccccc4)C(C)C)[C@@H]3CC[C@H]2C1=O | nt | i | nt | 5 | -7 | nt | nt | 0
CC(C)Cc1nnc(NC(=O)CCC(=O)NC2CCCCCC2)s1 | -15 | i | -7 | 12 | 0 | 2 | 3 | 0
CC(=O)c1ccc(S(=O)(=O)N(CCCO)Cc2cc3cc(C)ccc3[nH]c2=O)cc1 | 16 | i | -1 | -7 | 6 | -4 | -1 | 16

Next part.
SMILES | Yeast UUG start | Rce1 inh | HIV Env fusion | CSC inhib | PABP FP inh | MT1-MMP act inh | MT1-MMP act inh RFP | eIF4H inh | others
O=C(CSc1ccc(-c2ccc(-n3cccn3)cc2)nn1)Nc1ccc([N+](=O)[O-])cc1 | -22 | i | -8 | -1 | nt | 1 | -1 | nt
Cc1cccc(N2CCN(S(=O)(=O)c3ccc4c(c3)CCN4C(=O)CCC(=O)O)CC2C)c1 (stereo not drawn) | -18 | i | 8 | -6 | 20 | 4 | 5 | -4
O=C(CSc1ccc2nnc(-c3ccccn3)n2n1)Nc1ccccc1F | -19 | i | 0 | 17 | 8 | 0 | -4 | 3
COc1cc(C(=O)NCCC(=O)NC(C)C)cc(OC)c1OC | nt | i | 14 | 7 | 0 | 0 | 4 | -2
Cc1cccc(C(=O)Nc2c(C(=O)N(C)C)cnn2-c2ccccc2)c1 | -8 | i | -5 | 2 | 1 | -4 | -6 | 1
CCOc1ccc(S(=O)(=O)NCCC(=O)N2CCCCCCC2)cc1 | -7 | i | 27 | 9 | nt | -1 | 1 | nt
Cc1ccc(/C=[N+](\[O-])c2ccccc2C)o1 | 19 | i | -13 | 0 | 0 | -2 | 3 | -8
CCOc1ccccc1NC(=O)c1cccc(N2C(=O)CCC2=O)c1 | -40 | i | -2 | -8 | -1 | 2 | 2 | 0
CCOC(=O)c1ccc(NC(=O)c2nc(SC)ncc2Cl)cc1 | -16 | i | 0 | -3 | 0 | 4 | 5 | -11
CCCC(NC(=O)C(C)NC(=O)CO/N=C1\C=C2CCC3C4CCC(C(C)=O)[C@@]4(C)CCC3[C@@]2(C)CC1)C(=O)O (stereo partly drawn) | 12 | i | -5 | 0 | 2 | 4 | 4 | -2
O=S(=O)(NC1CCCCC1N1CCC(O)CC1)c1ccc(Cl)cc1 (stereo not drawn) | -11 | i | 22 | -7 | 4 | -21 | 8 | -4
Cc1ccc(C=Nc2ccccc2C(N)=O)s1 | -16 | i | -136 | 78* | 64 | 0 | -8 | 6 | eIF4H inh retest=0;PABP FP inh retest=-1
O=C1CC(N2CCOCC2)C(=O)N1c1ccc(Cl)cc1 (stereo not drawn) | -20 | i | 14 | -3 | -1 | -1 | 4 | -6
Cc1cccc(N(C(=O)c2ccc(Cl)cc2)C2CS(=O)(=O)CC2OC(=O)c2ccc(Cl)cc2)c1 (stereo not drawn) | -6 | i | nt | -10 | -4 | -6 | -7 | -7
CCN(CC)CCCN1C(=O)c2oc3ccccc3c(=O)c2C1c1cccc(OC)c1OC (stereo not drawn) | -9 | i | -54 | 1 | -8 | 0 | 2 | 1
COc1ccc([N+](=O)[O-])cc1NC(=O)C(C)OC(=O)C1CCCC1 (stereo not drawn) | -12 | i | 8 | 5 | 9 | -1 | 2 | -1
COCCNC(=O)c1c[nH]c2ccc(S(=O)(=O)Nc3ccccc3F)cc2c1=O | -14 | i | 12 | 20 | 17 | 0 | 1 | 9
COc1ccccc1C(=O)Nc1ccc(S(=O)(=O)Nc2cc(C)nc(C)n2)cc1 | -20 | i | nt | nt | 17 | 8 | 2 | 6
Cc1cccc2cc3c(N)c(C(=O)N4CCOCC4)sc3nc12 | -4 | i | -42 | -12 | 9 | -5 | -5 | 10
Cc1ccc2cccnc2c1NC(=S)NC(=O)c1ccccc1 | -21 | i | -23 | -7 | -8 | -3 | 2 | 8
Cc1cnc(C)c(Nc2nc(C(N)Cc3ccc(Cl)cc3)cs2)n1 (stereo not drawn) | -16 | nt | 28 | nt | nt | -3 | -1 | nt
CCN(CC(=O)Nc1c(F)cccc1F)C(=O)CSc1nnc(-c2ccco2)n1CC | -15 | i | 11 | -9 | -6 | -3 | 0 | -1
Cc1ccc(C)c(S(=O)(=O)N2CCCN(C)CC2)c1 | -16 | i | -2 | 10 | 9 | -4 | 1 | -19
O=C(CN1CCCCCC1)NC(c1ccccc1)c1ccccc1 | -12 | nt | 11 | -8 | 7 | 1 | -1 | -1
COc1ccc(NC(=O)c2cc(C3CCCCN3C(=O)OCCF)on2)c(C)c1 (stereo not drawn) | -11 | nt | 12 | nt | nt | -2 | 2 | nt

(listing goes on)
SMILES | Yeast UUG start | Rce1 inh | HIV Env fusion | CSC inhib | PABP FP inh | MT1-MMP act inh | MT1-MMP act inh RFP | eIF4H inh | others
COc1cc(/C=N/Nc2ccc(C(F)(F)F)cn2)ccc1O | nt | i | -16 | 19 | -3 | -2 | -5 | -5
Cc1cccc(N(C)S(=O)(=O)c2ccc3c(c2)C(C)(C)C(=O)N3C)c1 | -25 | i | 25 | -3 | 0 | 1 | 0 | 10
Cc1ccc(C)c(NC(=S)N/N=C/C(C)c2ccccc2)c1 (stereo not drawn) | -20 | i | 1 | -3 | 1 | -3 | -2 | 3
CC1=C(C)CC(C(=O)NNC(=O)c2ccccc2)C(C(=O)O)C1 (stereo not drawn) | -11 | i | nt | 0 | -4 | 1 | 5 | 4
COc1cc(OC)nc(NC(C)=O)n1 | -4 | i | nt | nt | 9 | 4 | 4 | -2
CC(=O)NC(C)(c1ccccc1)c1nc(-c2ccncc2)cs1 (stereo not drawn) | -11 | nt | 32 | nt | nt | 0 | 5 | nt
COc1cccc(Nc2nc(C(N)c3ccccc3Cl)cs2)n1 (stereo not drawn) | -21 | nt | 17 | nt | nt | -7 | 8 | nt
Cc1cc(O)ccc1N/C=C1\CCCC1=O | -13 | i | -81 | -5 | 6 | 27 | 32 | 81* | eIF4H inh retest=86*;PABP FP inh retest=24
C#Cc1ccc(CN2CCC(N3CCC(C(=O)NCc4ccccn4)CC3)CC2)cc1 | -16 | i | 12 | -5 | 3 | -2 | -6 | 5
Cc1ccc(SCc2nc3ccccc3n2CC(=O)Nc2ccccc2)cc1 | -18 | i | 20 | nt | 0 | 5 | -3 | -8
O=C(NNC(=O)c1csc(N2CCOCC2)n1)c1ccc(Cl)nc1 | -10 | nt | -5 | 0 | nt | 4 | 2 | nt

Taken from the entries so far (9 entries):
SMILES | Yeast UUG start | Rce1 inh | HIV Env fusion | CSC inhib | PABP FP inh | MT1-MMP act inh | MT1-MMP act inh RFP | eIF4H inh | others
Cc1ccc(C)c(NC(=S)N/N=C/C(C)c2ccccc2)c1 (stereo not drawn) | -20 | i | 1 | -3 | 1 | -3 | -2 | 3
CC1=C(C)CC(C(=O)NNC(=O)c2ccccc2)C(C(=O)O)C1 (stereo not drawn) | -11 | i | nt | 0 | -4 | 1 | 5 | 4
COc1cc(OC)nc(NC(C)=O)n1 | -4 | i | nt | nt | 9 | 4 | 4 | -2
CC(=O)NC(C)(c1ccccc1)c1nc(-c2ccncc2)cs1 (stereo not drawn) | -11 | nt | 32 | nt | nt | 0 | 5 | nt
COc1cccc(Nc2nc(C(N)c3ccccc3Cl)cs2)n1 (stereo not drawn) | -21 | nt | 17 | nt | nt | -7 | 8 | nt
Cc1cc(O)ccc1N/C=C1\CCCC1=O | -13 | i | -81 | -5 | 6 | 27 | 32 | 81* | eIF4H inh retest=86*;PABP FP inh retest=24
C#Cc1ccc(CN2CCC(N3CCC(C(=O)NCc4ccccn4)CC3)CC2)cc1 | -16 | i | 12 | -5 | 3 | -2 | -6 | 5
Cc1ccc(SCc2nc3ccccc3n2CC(=O)Nc2ccccc2)cc1 | -18 | i | 20 | nt | 0 | 5 | -3 | -8
O=C(NNC(=O)c1csc(N2CCOCC2)n1)c1ccc(Cl)nc1 | -10 | nt | -5 | 0 | nt | 4 | 2 | nt

Bioassay records from PubChem BioAssay.

An excerpt; rates above refer to the full screens.
